High-throughput results (PubChem BioAssay)
D2 agonist: agonists of human D2 dopamine receptor (beta-arrestin); P14416; DiscoveRx PathHunter D2 beta-arrestin, luminescence, 90 min; 100% = 57 uM dopamine signal; activation, % (concentration not given with the values); 360,000 compounds, 0.084% hits; in the data active = activation above about 40%; inconclusive = about 15% to 40%; inactive = below about 15%; also: the text of the record calls up to 30% inactive
Target sequence (P14416 whole entry, looked up): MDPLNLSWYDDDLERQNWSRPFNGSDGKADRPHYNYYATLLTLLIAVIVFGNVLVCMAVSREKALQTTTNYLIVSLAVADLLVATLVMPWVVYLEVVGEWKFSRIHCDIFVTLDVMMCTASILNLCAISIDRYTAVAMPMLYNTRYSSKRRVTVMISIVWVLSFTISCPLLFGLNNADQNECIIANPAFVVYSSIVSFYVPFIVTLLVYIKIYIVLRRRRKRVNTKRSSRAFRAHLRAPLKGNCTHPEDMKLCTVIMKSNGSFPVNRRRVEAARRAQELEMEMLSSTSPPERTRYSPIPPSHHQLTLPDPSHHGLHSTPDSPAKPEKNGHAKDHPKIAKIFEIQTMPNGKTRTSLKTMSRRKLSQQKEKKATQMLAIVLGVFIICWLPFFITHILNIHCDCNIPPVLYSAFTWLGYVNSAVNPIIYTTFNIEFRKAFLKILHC
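Agonist mode: compounds alone added to overnight-plated D2 PathHunter cells for 90 min at 37 C, with 57 uM final dopamine (EC100) defining full response. Beta-arrestin recruitment detected by chemiluminescent reagent, read after 1 h at ambient temperature.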
TRPML1 inh: human mucolipin-1 channel inhibition; 390,000 compounds, 0.02% hits; AID 624415; Q9GZU1; TRPML1-inducible cells, Ca2+ dye fluorescence, FDSS; active compounds read low; inhibition of EC80 agonist-evoked calcium signal; activity change, negative = inhibition, % (no concentration beside the values); in the data active means activity change below about -50%; inconclusive means about -30% to -50%; inactive means above about -30%;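 also: stimulus is agonist 54-4 at its EC80 concentration; % is scaled to controls: 0 for no effect and ±100 for the full control effect; compound concentration not given in the record; the text of the record puts the active cut at -80%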
Target sequence (Q9GZU1 whole entry, looked up): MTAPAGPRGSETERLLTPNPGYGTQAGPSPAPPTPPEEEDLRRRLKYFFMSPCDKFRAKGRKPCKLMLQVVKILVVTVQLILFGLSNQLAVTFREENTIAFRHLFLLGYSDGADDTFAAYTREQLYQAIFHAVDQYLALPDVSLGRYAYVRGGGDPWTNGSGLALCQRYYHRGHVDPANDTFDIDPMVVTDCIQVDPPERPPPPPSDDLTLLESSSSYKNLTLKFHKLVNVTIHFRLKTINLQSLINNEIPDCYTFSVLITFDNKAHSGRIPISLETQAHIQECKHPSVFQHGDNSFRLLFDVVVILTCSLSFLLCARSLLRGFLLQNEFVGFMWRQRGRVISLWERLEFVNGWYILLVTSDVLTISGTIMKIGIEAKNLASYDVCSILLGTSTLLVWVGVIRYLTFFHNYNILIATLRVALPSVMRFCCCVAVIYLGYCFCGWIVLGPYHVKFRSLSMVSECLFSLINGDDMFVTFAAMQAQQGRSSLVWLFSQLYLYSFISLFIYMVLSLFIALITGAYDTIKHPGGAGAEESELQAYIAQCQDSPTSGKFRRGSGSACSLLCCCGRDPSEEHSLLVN
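Calcium fluorescence in TRPML1-DL cells induced overnight with Tet: a 110 s read after compound pin addition, then a 110 s antagonist read after challenge with 54-4 at 4 uM final (EC80).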
PINK1 expr mod: PINK1 expression modulation | Potency, µM (series often up to 76.6 µM), for the others: at the top dose activation (PINK1 increase), actives largely listed as activators | PINK1 immunofluorescence, high-content cytometry, 24 h | 410,000 compounds, 0.2% hits; active = well fitted activation curve with a large enough effect; inconclusive = small, poorly fitted or top-dose-only effect; inactive = flat fitted curve, though single readings scatter; cell line not stated here;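 also: potency is read from the fitted curve at half-maximal effect; % of control where 0% means no effect; nearly all actives have a fitted effect of over 65% in size; a mitochondrial uncoupler was the plate control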
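Cells are seeded, rested 12 hours, then given compound at five concentrations or DMSO for 24 hours. After fixation, blocking and antibody staining, PINK1 amount and mitochondrial localization are scored; CCCP serves as control.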
TRPML1 agonist: human mucolipin-1 channel agonism | Q9GZU1 | TRPML1-expressing cells, Ca2+ dye fluorescence, FDSS; host cell line not named in the record; reference of the full effect not given here | activation, % (concentration not given with the values) | 410,000 compounds, 0.12% hits; in the data active = activation above about 50%; inconclusive = about 30% to 50%; inactive = below about 30%; also: 0% is about no effect; the text of the record puts the active cut at 80%
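TRPML1-DL cells, Tet-induced overnight (~16 h, 37 degrees C), loaded 45-90 min at room temperature with Ca8 no-wash calcium dye plus quencher. FDSS fluorescence: 10 s baseline, compound pin-transfer, 110 s agonist read, then EC80 54-4 (4uM final) and 110 s antagonist read.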
Six1-Eya2 blk: inhibitors of human Six1/Eya2 interaction. Q15475+O00167. AlphaScreen GST-Six1/His-Eya2 binding, biochemical; active compounds read low; control for the full effect not named in the record. activity change, % (no concentration beside the values). 360,000 compounds, 0.56% hits. AID 651725; in the data active = activity change below about -65%; inconclusive = about -30% to -65%; inactive = above about -30%; also: % is scaled to controls: 0 for no effect and ±100 for the full control effect
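Compounds are tested against tagged Six1 and Eya2 proteins bridged by glutathione donor and nickel acceptor beads; after a one-hour incubation at 37 °C without light, AlphaScreen emission is recorded.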
CtBP-E1A inh: blocks the CtBP interaction with E1A. AlphaScreen GST-E1A/His-CtBP binding, 1536-well; active compounds read low; control for the full effect not named in the record. activity change, % (concentration not given with the values). 340,000 compounds, 0.49% hits; in the data active means activity change below about -65%; inconclusive means about -30% to -65%; inactive means above about -30%; also: % is scaled to controls: 0 for no effect and ±100 for the full control effect
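Homogeneous bead-based format: GST-tagged E1A captured on glutathione donor beads, His-tagged CtBP on nickel acceptor beads; compounds precede bead addition by 2 h at 37 °C.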
* hit, by the source's call; ? = inconclusive; nt = no result given; [ ] = another dose, or the depositor's remark.

SMILES	D2 agonist	TRPML1 inh	PINK1 expr mod	TRPML1 agonist	Six1-Eya2 blk	CtBP-E1A inh
O=S(=O)(Nc1ncccn1)c1ccc(NC(=S)Nc2ccc(Cl)cc2)cc1	-2.5	-4	6.4%	0.4	-2	-13
CC(NC(=O)CNC(=O)c1ccco1)c1ccc(S(N)(=O)=O)cc1 (centres undefined)	-1.9	-18	0.5%	1.3	-6	-23
CN1OC[C@@H]2CN(C(=O)C(C)(C)C)[C@H](c3cccc(Br)c3)C[C@@H]21	1.8	3	-0.2%	4.1	2	8
CCN(CC(=O)Nc1c(F)cccc1F)C(=O)CCCNC(=O)c1ccc(Cl)cc1	-5.6	-11	1.5%	-0.5	-1	6
COc1ccc(/C=C2/NC(=O)CNC2=O)cc1	-5.5	6	0.5%	0.9	3	nt
O=c1ncn(-c2ccccc2F)c2ncccc12	1.5	40	-0.3%	-0.2	6	3
COc1cc(C2C(C#N)=C(N)Oc3c2c(-c2ccccc2)nn3-c2ccccc2)cc(OC)c1OC (centres undefined)	1.7	7	5.4%	0.8	-20	1
Fc1ccc(-n2ncc3c(N4CCCCCC4)ncnc32)cc1	nt	29	0.2%	1.1	nt	nt
CC1=C(C(=O)N2CCOCC2)C(c2ccccc2F)NC(=O)N1 (centres undefined)	-1.2	0	-1.1%	0.1	-1	4
CCOC(=O)c1oc2c(CN3CCCCC3C)c(O)ccc2c(=O)c1-c1ccc(OC)c(OC)c1 (centres undefined)	-3.0	0	7.8%[38.3 µM]	-0.8	4	-5
CN(C)C=NC(=O)c1cc(C(=O)c2ccc(Cl)cc2)c[nH]1	-3.4	25	-1.7%	0.0	8	-6
O=C(CCn1nnc(-c2cccs2)n1)NC1CCCCC1	2.2	-4	nt	0.2	3	5
CCOC(=O)C1(CC2CCCCO2)CCN(Cc2cc(F)ccc2-n2cccn2)CC1 (centres undefined)	-2.2	-4	8.2%	0.6	1	-1
O=C(C1CCC1)N1CCN(S(=O)(=O)c2ccc(F)cc2)CC1	-5.5	2	0.5%	-0.4	0	1
CCOC(=O)c1c(C)[nH]c(C(=O)OCC(=O)Nc2ccccc2)c1C	0.8	-5	1.0%	0.6	2	nt
COC(=O)c1sccc1NC(=O)Nc1ccccc1Cl	2.1	-11	0.8%	0.2	3	-2
O=C(CN1C(=O)/C(=C/c2ccccc2)SC1=S)NC1C=CS(=O)(=O)C1 (centres undefined)	-9.2	-2	0.6%	-0.4	-2	-14
COc1ccccc1NC(=O)CN1C(=O)NC(CC(C)C)C1=O (centres undefined)	-3.7	-10	1.0%	0.0	14	-1
CN1C(=O)c2ccc(NC(=S)NC(=O)C(C)(C)C)cc2C1=O	-1.9	4	-0.5%	-0.1	1	16
CCN(CC(=O)Nc1c(F)cccc1F)C(=O)CCCOc1ccccc1	-0.2	5	1.3%	0.2	6	-6
O=C1NC(=O)/C(=C\c2ccccc2OCc2ccccc2)S1	3.0	-7	-0.3%	1.6	10	1
COCCn1c(SCC(=O)Nc2cc(C(C)(C)C)nn2-c2ccccc2)nnc1-c1ccncc1	-3.7	-1	-3.5%	0.6	6	-7
C/C(CC(=O)Nc1cc(C)ccn1)=N\NC(=O)c1cccc(F)c1	-1.8	-4	4.2%	0.7	-10	-12
O=C(O)c1ccc(COc2c(F)c(F)cc(F)c2F)o1	-5.0	11	23%[38.3 µM]	-0.4	-3	0
CCCCN(C(=O)c1cccc2c(=O)c(C)c(-c3ccccc3)oc12)c1ccccc1	-2.5	23	3.6%	3.4	-1	-12

Fetched by structure from the list above:
SMILES	D2 agonist	TRPML1 inh	PINK1 expr mod	TRPML1 agonist	Six1-Eya2 blk	CtBP-E1A inh
O=C(C1CCC1)N1CCN(S(=O)(=O)c2ccc(F)cc2)CC1	-5.5	2	0.5%	-0.4	0	1
CCN(CC(=O)Nc1c(F)cccc1F)C(=O)CCCOc1ccccc1	-0.2	5	1.3%	0.2	6	-6

Further results follow:
SMILES	D2 agonist	TRPML1 inh	PINK1 expr mod	TRPML1 agonist	Six1-Eya2 blk	CtBP-E1A inh
O=C(CCn1cnc2ccccc21)N/N=C/c1ccccc1O	-4.5	-3	-2.4%	1.4	?	?
O=C(CSc1nc(O)cc(=O)n1-c1ccccc1)NC1CCCCC1	0.5	4	-0.2%	0.1	4	0
O=C(c1ccccn1)N1CC=C(c2ccccc2)CC1	2.9	1	0.9%	0.2	-1	8
O=C(COC(=O)C1(c2ccc(Cl)cc2)CCCC1)NCc1ccco1	1.9	-6	-0.7%	0.4	-5	-4
COc1ccc(C(=O)NNC(=O)c2ccccc2[N+](=O)[O-])cc1[N+](=O)[O-]	-5.6	6	1.4%	-0.3	17	-20
COc1ccc(OC)c(S(=O)(=O)N2CCC3(CC2)OCCN3S(=O)(=O)c2cccs2)c1	0.6	7	-0.3%	-0.6	-1	-25
Cc1ccc(OCc2cc(=O)n3ccsc3n2)c(NC(=O)c2ccco2)c1	nt	5	-0.4%	1.4	nt	nt
CNC[C@H](CC1CCCCC1)NC[C@H](NCCC1CCCC1)[C@H](C)O	-3.4	1	-0.6%	-0.2	-9	-6
Cc1cc(C)c2nc(Cl)c(CN(Cc3ccco3)C(=O)Nc3ccccc3C)cc2c1	-3.2	17	?	1.9	-7	7
Cc1cc(C)n(CC(C)Nc2nc3nonc3nc2N2CCCCC2)n1 (centres undefined)	1.6	-18	-1.5%	-0.6	-1	-1
COc1ccc(C(=O)NCCn2ccc3ccccc32)c(OC)c1	1.4	32	0.0%[38.3 µM]	4.9	-5	11
COc1cc(Cl)c(S(=O)(=O)N2CCN(Cc3ccc4c(c3)OCO4)CC2)cc1Cl	1.4	29	-0.7%	0.8	-15	-10
CC(=O)Nc1ccc(NC(=O)CSc2nnnn2C2CCCCC2)cc1	-4.2	25	-1.1%	0.5	-5	6
CC1(C)CC(=O)C2=C(C1)OC1=C(C(=O)CC(C)(C)C1)C2c1cccc([N+](=O)[O-])c1	-6.2	-3	1.2%	-0.5	1	2
F[B-](F)(F)c1cc2cc(Br)ccc2s1	2.7	-19	12%	0.9	0	0
COC(=O)c1c(NC(=O)c2ccc(Cl)c(Cl)c2)sc2c1CCCC2	nt	-17	1.4%	-0.4	nt	nt
Cc1cccnc1NC(=O)c1ccc(OCC2CCCO2)cc1 (centres undefined)	-4.0	2	-0.2%	-0.4	11	nt
CCc1cc2c(cc3c(=O)n(CC(=O)NCCCN4CCCCCC4)nc(CC)n32)s1	-6.4	63	3.1%	-0.5	-2	nt
Cc1ccc(/C=N/NC(=O)CN(Cc2ccccc2)S(=O)(=O)c2ccc3c(c2)OCCO3)cc1	-0.8	-5	1.9%	1.2	0	15
CCN1C(=O)N[C@@H](c2ccccc2)[C@H](C(=O)OC)[C@H]1C	-1.9	-12	0.3%	0.8	28	-20
O=C(Nc1ccc(F)cc1F)c1ccc(S(=O)(=O)NCc2ccco2)cc1	8.3	1	3.3%	-0.5	-1	3
CC(C)(C)C(=O)Nc1nnc(SCc2ccc(F)cc2)s1	3.0	-13	nt	0.5	8	5
Cc1nn(C)c(C)c1S(=O)(=O)N1CCC(C(=O)NCCC2=CCCCC2)CC1	-1.5	17	2.1%	-0.2	9	-1
Cc1c(NC(=O)/C(C#N)=C/c2ccc(-c3ccc(Cl)c(Cl)c3)o2)c(=O)n(-c2ccccc2)n1C	1.1	22	-1.7%	0.2	-30	4
O=S(=O)(NCc1nc(-c2ccccc2)no1)c1ccc(F)cc1	-2.2	1	1.6%	3.4	6	9

Entries above that have a tert-butyl group:
SMILES	D2 agonist	TRPML1 inh	PINK1 expr mod	TRPML1 agonist	Six1-Eya2 blk	CtBP-E1A inh
CN1OC[C@@H]2CN(C(=O)C(C)(C)C)[C@H](c3cccc(Br)c3)C[C@@H]21	1.8	3	-0.2%	4.1	2	8
CN1C(=O)c2ccc(NC(=S)NC(=O)C(C)(C)C)cc2C1=O	-1.9	4	-0.5%	-0.1	1	16
COCCn1c(SCC(=O)Nc2cc(C(C)(C)C)nn2-c2ccccc2)nnc1-c1ccncc1	-3.7	-1	-3.5%	0.6	6	-7
CC(C)(C)C(=O)Nc1nnc(SCc2ccc(F)cc2)s1	3.0	-13	nt	0.5	8	5

(further entries)
SMILES	D2 agonist	TRPML1 inh	PINK1 expr mod	TRPML1 agonist	Six1-Eya2 blk	CtBP-E1A inh
CC(C)=CCc1c(O)ccc(C(=O)Cc2ccccc2)c1O	-0.9	0	4.4%	11	6	6
Cc1ccc(C(=O)OCCn2cc(C#N)c(=O)[nH]c2=O)cc1	0.1	-14	3.0%	-0.1	-10	-19
CCCCN(CC)CCCNC(=O)CS(=O)(=O)Cc1nc(-c2cccc(OC)c2)oc1C	-3.6	7	nt	0.2	-1	-2
CC(=O)Nc1nc2c(s1)C(=O)NCC(C)(C)C2	-5.0	4	1.0%	-0.1	-7	-5
COc1ccc(OCCC(=O)Nc2cc(C)on2)cc1	-2.5	3	0.9%	0.4	9	3
Cc1[nH]cc(Br)c(=O)c1Oc1ncc(C(F)(F)F)cc1Cl	-0.9	1	1.3%	0.1	1	8
Cc1ccc(S(=O)(=O)N2CCN(C(=O)CCC(=O)Nc3ccc(F)cc3F)CC2)cc1	-1.3	5	-0.2%	0.4	0	2
COc1ccccc1Nc1n[nH]c(=S)s1	8.3	13	-0.5%	0.1	0	-5
NC(CSC1(c2cccc3ccccc23)c2ccccc2-c2ccccc21)C(=O)O (centres undefined)	-0.1	0	14%	1.0	-17	1
CC1(c2ccc(Cl)cc2)NC(=O)N(CC(=O)N2CCN(S(=O)(=O)c3ccccc3)CC2)C1=O (centres undefined)	-4.1	-8	-1.6%	-0.2	-2	4
CCOC(=O)c1nn(-c2ccccc2)c(-c2ccccc2)c1C(=O)c1ccccc1	-2.5	4	-1.8%	3.3	-8	0
O=C(Nc1ccc(S(=O)(=O)Nc2ncccn2)cc1)c1ccccc1	-3.9	2	-0.3%	0.2	-1	nt
CC(C)C(NC(=O)c1ccccc1)C(=O)OCC(=O)N1CCCCC1 (centres undefined)	-4.1	-11	-1.1%	0.2	1	1
O=C(Nc1nc(-c2ccc(F)cc2)cs1)c1cccc(N2C(=O)CCC2=O)c1	-2.2	-4	1.1%	0.0	-7	4
NC(=O)Cc1c[nH]c2cccc(O)c12	-1.6	-14	-0.2%	-0.2	-2	0
C#CCNC(=O)C1=C[C@@H](c2csc3ccccc23)[C@H](CCCO)[C@@H](OCC)O1	-0.7	3	0.9%	-0.7	2	-1
O=[N+]([O-])c1cccc(-c2nc(-c3ccncc3)no2)c1	1.2	-10	-0.1%	-0.7	-11	-8
CCc1ccc(S(=O)(=O)/N=C2\C=C(Nc3cccc(C(=O)O)c3)C(=O)c3ccccc32)cc1	-9.9	-20	-2.2%	3.7	?	-75*
CCCCC1=CC2=CC(=O)C(C)(OC(=O)CC)C(=O)C2=CN1Cc1ccco1 (centres undefined)	7.3	-11	1.5%	-1.0	-5	4
Cc1ccc(NC(=O)c2ccc(N3CCOCC3)c([N+](=O)[O-])c2)cc1S(=O)(=O)N1CCOCC1	4.2	-11	-0.1%	-0.3	-18	-10
O=C(NCC1CCOCC1)C1Cc2c(-c3ccccc3Oc3ccccc3)ccnc2O1 (centres undefined)	-4.5	nt	3.7%	-0.6	5	-23
COc1ccc(NC(=O)COC(=O)COc2ccc(Br)cc2)cc1	-0.8	3	-1.8%	1.4	8	-12
O=C(Nc1cccc(O)c1)C1CC(c2cccc(Br)c2)=NO1 (centres undefined)	2.4	4	0.6%	-1.1	5	-3
